# VDR inh: Inhibitors of the vitamin D receptor (VDR): qHTS; 400,000 compounds, 0.93% hits; VDR-SRC2-3 peptide fluorescence polarization, 2 h; Potency, µM, for the others: max response, negative = inhibition, actives largely listed as inhibitors; active means well fitted inhibition curve with a large enough effect; inconclusive means small, poorly fitted or top-dose-only effect, or another doubt; inactive means no such curve, though single readings can be large or run the other way; further: series mostly up to about 120 µM
# Target sequence (P11473 whole entry, looked up): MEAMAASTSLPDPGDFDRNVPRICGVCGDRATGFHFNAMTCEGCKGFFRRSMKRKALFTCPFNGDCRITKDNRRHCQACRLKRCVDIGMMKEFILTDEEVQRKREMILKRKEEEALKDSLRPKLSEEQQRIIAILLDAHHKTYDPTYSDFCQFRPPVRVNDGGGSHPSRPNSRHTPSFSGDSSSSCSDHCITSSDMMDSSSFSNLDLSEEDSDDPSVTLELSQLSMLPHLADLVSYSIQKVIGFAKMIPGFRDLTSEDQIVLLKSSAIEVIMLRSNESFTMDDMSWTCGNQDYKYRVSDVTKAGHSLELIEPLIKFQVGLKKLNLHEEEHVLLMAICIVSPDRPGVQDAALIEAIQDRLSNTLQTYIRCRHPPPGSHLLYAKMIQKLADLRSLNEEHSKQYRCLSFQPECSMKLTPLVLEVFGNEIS
#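 VDR–SRC2-3 interaction, FP format. Cmpds 23 nl via pintool, brief spin, 2 h ambient incubation.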
# An asterisk follows results filed as active; ? = inconclusive; & = joins results of further samples; [ ] = remark or other dose. On the % scale 0 is the no-effect control and ±100 the full control effect; potency means the concentration at half of the fitted maximal effect.
SMILES,VDR inh
Cc1ccc(S(=O)(=O)NCCC(=O)N2CCCCCCC2)cc1,5%
COc1ccc(CO/N=C/c2c(C)[nH]c(=O)[nH]c2=O)cc1,2%
COc1cccc(CN(Cc2ccco2)C(c2ccc(F)cc2)c2nnnn2C(C)(C)C)c1 (stereo not drawn),-16%
O=c1c2ccccc2nc2n1C(CSCc1cccc(C(F)(F)F)c1)CS2 (stereo not drawn),-13%
CC(C)CCN(C(=S)Nc1cccc(F)c1)C(C)c1cccs1 (stereo not drawn),-3%
CN(C)S(=O)(=O)N1CCN(CC(=O)Nc2ccc(F)cc2)CC1,-16%
Cc1ccc(-c2nnc(-c3ccccc3)c(N3CCOCC3)n2)cc1,5%
COC1CCN(C(=O)c2ccc(OC3CCN(CCc4ccccc4)CC3)cc2)CC1,-5%
CC(=O)c1ccc(OCc2ccc(C(=O)c3ccccc3)cc2)cc1,-12%
CCOC(=O)C1CCCN(Cc2c(F)cccc2Cl)C1 (stereo not drawn),-18%
COc1ccc(NC(=O)N[C@@H](Cc2ccccc2)C(=O)NN)cc1,2%
O=C(Cn1nnc(-c2ccc(Cl)cc2)n1)NCC1CCCCC1,5%
CCOC(=O)C(CC)n1nc(C)n2c(cc3sccc32)c1=O (stereo not drawn),4%
CCOc1ccc(C(=O)NCCn2cc(SCC(=O)NCCc3ccc(OC)c(OC)c3)c3ccccc32)cc1,7%
CCOc1ccccc1N(CC(=O)N/N=C/c1cc(Br)ccc1OC)S(C)(=O)=O,-5%
CS(=O)(=O)c1ccc(Cl)c(NC(=O)CSc2n[nH]c(N)n2)c1,11%
CCCCn1c(N)c(N(CC)C(=O)c2cc(Br)ccc2Cl)c(=O)[nH]c1=O,-4%
O=C(NNC(=O)c1ccccc1O)c1ccc(NS(=O)(=O)c2ccc(F)c(F)c2)cc1,7%
CCCCNC(=O)c1onc(CSc2cccc(OC)c2)c1C(=O)NCCCC,-9%
COC(=O)c1[nH]c2cc(OC)c(OC)cc2c1NC(=O)c1cccc(OC)c1,-8%
CCOC(=O)C1CCCN(c2c(NCCc3cccc(C)c3)c(=O)c2=O)C1 (stereo not drawn),-3%
Cc1ccccc1-c1ccnc2[nH]n(-c3ccccc3)c(=O)c12,0%&5%
CC1(O)CC2C(CC1O)C2(C)C (stereo not drawn),-2%
NCCCCCc1nnc(SCc2ccc(Cl)cc2Cl)o1,38%[activator]
O=C(COC(=O)/C=C/c1cccc(F)c1)NC(=O)NCc1ccccc1,-19%

# Next part; the last three above are carried over.
SMILES,VDR inh
CC1(O)CC2C(CC1O)C2(C)C (stereo not drawn),-2%
NCCCCCc1nnc(SCc2ccc(Cl)cc2Cl)o1,38%[activator]
O=C(COC(=O)/C=C/c1cccc(F)c1)NC(=O)NCc1ccccc1,-19%
O=C(c1cccnc1)N1CCN(C/C=C/c2ccccc2)CC1,5%
COc1ccc(Cc2nn3c(-c4cc(OC)c(OC)c(OC)c4)nnc3s2)cc1,-21%
O=C(NCCS(=O)(=O)c1ccc(Br)cc1)c1ccc(F)cc1,4%
COc1ccc(C(=O)Nc2ccc(S(=O)(=O)N3CCCC3)cc2)cc1[N+](=O)[O-],-9%
CCOC(=O)c1c(NC(=O)C2COc3ccccc3O2)sc(C)c1C (stereo not drawn),5%
CC(=O)NS(=O)(=O)c1ccc(NC(=O)c2cc(-c3ccc(C)c(C)c3)nc3ccccc23)cc1,2%
CCOC(=O)C1C(=O)C=C(c2cccs2)CC1c1ccccc1C (stereo not drawn),-2%
Cc1ccc(C(=O)Nc2ccccc2C(=O)NCC2CCCO2)cc1 (stereo not drawn),-9%
Cc1occc1-c1nnc(SCC(=O)NC2CCCCC2C)o1 (stereo not drawn),5%
CCCn1c(N)c(N(CCOC)C(=O)CSCC(=O)Nc2ccc(C)cc2)c(=O)[nH]c1=O,5%
N#Cc1cc(C(=O)c2cc(Cl)ccc2O)cn(-c2ccccc2)c1=O,-8%
O=C(Nc1ccc2oc(-c3ccc(Cl)cc3)nc2c1)c1ccc2ccccc2c1,-3%
O=[N+]([O-])c1ccccc1/C=N/N1CCN(c2ccncc2S(=O)(=O)N2CCCCC2)CC1,10%
COc1ccc(C(=O)Cn2nnc(-c3ccccc3NC(=O)c3ccco3)n2)cc1,-2%
CC(=O)NCc1ccc(C(=O)CSc2nnc(-c3ccncc3)n2Cc2ccccc2)o1,-1%
CCc1ccc(C(=O)C(C)OC(=O)Cn2[nH]c(=O)c3ccccc3c2=O)cc1 (stereo not drawn),18%
Cc1ccccc1OCC(=O)O/N=C(\N)Cc1cccs1,3%
Cc1ccnc(NCc2ccccc2O)c1,9%
CC(C)(C)OC(=O)NC(CCCCNC=O)C(=O)O (stereo not drawn),12%
O=C(CS(=O)(=O)c1ccccc1)N1CCCCCC1,0%
CC1CC(C)CN(c2oc(-c3ccccc3Cl)nc2C#N)C1 (stereo not drawn),-14%
CCOC(=O)c1c(C)c(C(=O)N2CCc3ccccc3C2)c(C)n1CC,-4%
N#CCCN1CCN(Cc2cc(-c3ccccc3)ccc2O)CC1,6%
C[C@@H](C(=O)NCc1ccco1)N1C(=O)N2CCc3c([nH]c4ccccc34)[C@@]2(C)C1=O,?
O=C(NCc1ccc(F)cc1)C(c1ccccc1)N(C(=O)c1csnn1)c1ccccc1 (stereo not drawn),-15%

# Among those listed so far, these have a tert-butyl group:
SMILES,VDR inh
COc1cccc(CN(Cc2ccco2)C(c2ccc(F)cc2)c2nnnn2C(C)(C)C)c1 (stereo not drawn),-16%
CC(C)(C)OC(=O)NC(CCCCNC=O)C(=O)O (stereo not drawn),12%

# The list continues.
SMILES,VDR inh
O=C(N/N=C/c1cc(Br)c(Br)s1)c1ccncc1,-14%
Cc1cc(NC(=O)CSc2nc(-c3cccs3)cc(C(F)(F)F)n2)no1,8%
CCOC(=O)Cc1ccc(NC(=O)N2CCC(CN3CCCCCC3)CC2)cc1,6%
C/C(=N\Nc1ccc(F)cc1F)c1ccccc1O,7%
CC1CCN(C(=O)Cn2cc(SCC(=O)NCC3CCCO3)c3ccccc32)CC1 (stereo not drawn),-8%
CCOC(=O)CN(C)Cc1cn(C)nc1-c1ccc(Oc2ccccc2)cc1,5%
O=c1[nH]c(-c2ccccc2)nc2sc(-c3ccccc3)cc12,-10%
CN(Cc1ccccc1)c1nc(-c2cccc([N+](=O)[O-])c2)nc2ccccc12,?
CSc1ncccc1C(=O)NC1CCCCCC1,6%
COc1ccc(-n2nnnc2SCC(=O)Nc2cccc(O)c2)cc1,-6%
Cc1nc(N2CCN(c3ccccn3)CC2)c2c(C)c(C(=O)N3CCN(c4ccc(F)cc4)CC3)sc2n1,23%
COc1ccc(C2=NOC(Cn3nc(C(=O)NCc4ccc(C)cc4)cc3-c3ccccc3)C2)cc1 (stereo not drawn),-19%
Cc1ccc(-c2cc(C(=O)N/N=C/c3c(C)nn(-c4ccccc4)c3C)n[nH]2)s1,-1%
CCc1ccc(C(C(=O)NCCOC)N(C(=O)Cn2nnc3ccccc32)c2cccnc2)cc1 (stereo not drawn),-9%
COc1cccc2c1OC[C@@H](CO)[C@H]2N(C)C(=O)Nc1ccccc1,19%
C/C(=C\C(=O)c1ccc(Br)cc1)NCc1ccc2c(c1)OCO2,17%
CCc1ccc(Nc2ccc3nonc3c2[N+](=O)[O-])cc1,-7%
CC(C)(C)c1cc(=O)n2[nH]c(N)nc2n1,10%
CC1CN(S(=O)(=O)c2cc(C(=O)NCCC3=CCCCC3)ccc2Cl)CC(C)O1 (stereo not drawn),-2%
Cc1csc(NC(=O)c2ccc3ccccc3n2)n1,-8%
O=C(Nc1ccccc1)c1ccc(Nc2c([N+](=O)[O-])cc([N+](=O)[O-])c3ccccc23)cc1,10%
CCN(C(=O)c1sc2nc3n(c(=O)c2c1C)CCCCC3)c1ccc(OC)cc1,6%
CN(CC(=O)NC1CC(C)(C)NC(C)(C)C1)S(=O)(=O)c1cc(Cl)ccc1Cl,-6%
COc1ccc(N2CCN(C(=O)CSc3nnc(COc4cccc5cccnc45)o3)CC2)cc1,4%
Cc1cc(=O)[nH]c2nnnn12,?
SMILES,VDR inh
CC(=O)C1(O)Cc2c(O)c3c(c(O)c2C(OC2CC(N)C(O)C(C)O2)C1)C(=O)c1c(O)cccc1C3=O (stereo not drawn),1%
COc1cccc(NC(=O)C2C3CCC4C(CCC32)C4(Cl)Cl)c1 (stereo not drawn),-13%
O=S(=O)(Nc1cccc(-c2ccc(N3CCOCC3)nn2)c1)c1ccccc1C(F)(F)F,12%
C/C(=N\NS(=O)(=O)c1ccccc1)c1cc(Cl)cc(Cl)c1O,-11%
Cc1ccc2nc(Nc3nc(C)cc(-c4ccccc4)n3)[nH]c(=O)c2c1,6%
CC(OC(=O)c1ccc(NC(=O)CC#N)cc1)C(=O)Nc1nc(-c2ccccc2)cs1 (stereo not drawn),22%
CN(C)CCCCOc1ccc(F)cc1,1%
CCOC(=O)C(C)Sc1ncc(-c2ccc(Cl)cc2)cn1 (stereo not drawn),-13%
CCn1c(CNC(=O)c2ccc(OC)c(OC)c2)nnc1SCC(=O)Nc1ccc(OC)cc1,-4%
C=CCN=C1CC(C)(C)C(C(=O)OC)C(O)=C1C(=O)CCC (stereo not drawn),-12%
CS/C(=C\[N+](=O)[O-])Nc1ccc(Cl)cc1,-6%
O=C(Nc1ccc(F)cc1F)C1CCN(C(=O)c2ccc(Br)cc2)CC1,-14%
CCCCCCn1c(CN2CCCCC2CC)nc2c1c(=O)n(C)c(=O)n2C (stereo not drawn),-5%
Cc1cc(C)n(-c2nnc(Nc3cc(Cl)ccc3C)c3ccccc23)n1,10%
Cc1nc2cc(NC(=O)N(C)c3ccc4ccccc4c3)ccc2o1,4%
CCOc1ccccc1NC(=O)Cn1nnc(-c2ccc(OCC)c(OCC)c2)n1,-5%
COc1cccc(C(=O)Nc2cc(C(F)(F)F)ccc2Cl)c1,-7%
O=C(NCc1ccccc1Cl)C(=O)NCC(c1ccco1)S(=O)(=O)c1cccs1 (stereo not drawn),12%
OCCC1CN(Cc2cccc(-n3cccn3)c2)CCN1Cc1ccccc1 (stereo not drawn),3%
COc1ccc(N(CC(=O)NC2CCCCCCC2)S(=O)(=O)c2c(C)nn(C)c2C)cc1,-14%
O=C(O)C1CC=CCC1C(=O)NC1CCCCC1 (stereo not drawn),7%
COc1ccc(CN2CCCC(CNC(=O)c3ccc(F)cc3)C2)c(F)c1 (stereo not drawn),-8%
CCSc1nnc(NC(=O)/C=C/c2ccco2)s1,-8%
CCOCCCNC(=O)c1ccc2c(c1)ncn2-c1ccc(C)cc1C,?
CCOC(=O)c1c(NC(=O)CC2SC(=NC)N(C)C2=O)sc(C)c1C (stereo not drawn),5%

# Retrieved one by one from the list above:
SMILES,VDR inh
O=[N+]([O-])c1ccccc1/C=N/N1CCN(c2ccncc2S(=O)(=O)N2CCCCC2)CC1,10%
CCOC(=O)c1c(NC(=O)C2COc3ccccc3O2)sc(C)c1C (stereo not drawn),5%
NCCCCCc1nnc(SCc2ccc(Cl)cc2Cl)o1,38%[activator]
CCOC(=O)C(C)Sc1ncc(-c2ccc(Cl)cc2)cn1 (stereo not drawn),-13%
CS/C(=C\[N+](=O)[O-])Nc1ccc(Cl)cc1,-6%
COc1ccc(C(=O)Nc2ccc(S(=O)(=O)N3CCCC3)cc2)cc1[N+](=O)[O-],-9%
CCCCn1c(N)c(N(CC)C(=O)c2cc(Br)ccc2Cl)c(=O)[nH]c1=O,-4%

# Further compounds:
SMILES,VDR inh
Cc1ccc(/C=C/C(=O)OCC(=O)N2CC(=O)Nc3ccccc32)o1,-24%
O=C(O)c1c2cc(Br)ccc2nc2[nH]c(=O)[nH]c(=O)c12,-8%
OCC1OC(Oc2c(Br)cc(Br)cc2Br)C(O)C(O)C1O (stereo not drawn),23%
CCc1ccc(OCc2ccc(C(=O)OC)o2)cc1,27%
COc1ccc(NC(=S)N(CCN(C)C)Cc2cccs2)cc1,5%
CC(C)CC(CO)N1CCN(C(=O)c2cccc(C(F)(F)F)c2)CCC1=O (stereo not drawn),-2%
COc1ccc(C(=O)n2cc(C(=O)c3cc(C)ccc3O)cn2)cc1,-19%
O=C(Nc1nc2ccccc2n1Cc1ccccc1)c1ccco1,12%
O=C(NCCCN1CCOCC1)c1ccc(N2CCCC2)c([N+](=O)[O-])c1,-24%
CN(C)C(=O)C(OC(=O)c1ccc2c(c1)CCCC2)c1ccccc1 (stereo not drawn),-20%
CCOc1ccc(Cl)cc1CN1CCOCC1,-7%
CCOC(=O)c1ccc(NC(=O)C2CCN(C(=O)N3CC(C)Oc4ccc(C)cc43)CC2)cc1 (stereo not drawn),-6%
O=C(c1ccc(NC(=S)NCc2ccc(Cl)cc2)cc1)N1CCCCC1,-5%
O=C(NCCc1ccccn1)C1CCCN1S(=O)(=O)c1ccc(Cl)cc1 (stereo not drawn),13%
O=C(CSC1=NC2(CCCCCC2)N=C1c1ccccc1)Nc1ccc2c(c1)OCCO2,?
Cc1ccc2nc(-c3ccccc3)cc(C(=O)Nc3cccnc3)c2c1,-7%
Cc1cc(C)n(Cc2ccccc2)c(=O)c1S(=O)(=O)c1ccccc1,-5%
COC(CNC(=O)CN1CCN(Cc2ccccc2F)C1=O)OC,-16%
COc1ccc2nc(NC(=O)c3nc(SCc4cccc(C)c4)ncc3Cl)sc2c1,1%
O=C(COc1ccc(S(=O)(=O)N2CCOCC2)cc1)NC1CCCC1,5%
CCOC(=O)N1CCN(C(c2ccccc2)c2sc3nc(C)nn3c2O)CC1 (stereo not drawn),3%
O=S(=O)(Nc1ccc(Cc2ccncc2)cc1)c1ccc(Cl)c(Cl)c1,6%
COc1ccccc1-c1ccc2ncnc(N(C)Cc3ccco3)c2c1,45µM*
CN(C)CCCNC(=O)CCC1CCCCC1,6%
Cc1ccc(S(=O)(=O)Nc2cccc(C(=O)NCC3CCCO3)c2)cc1F (stereo not drawn),-6%

# From PubChem BioAssay

# The list is partial; the hit share may differ from the screen's.
